# Source: PubChem
# Env fusion inh: inhibitors of HIV-1 Env-driven cell-cell fusion, primary screen, HeLa-JRFL effector, CEM21 target cells, luciferase | inhibition, % at 12.3 µM | 360,000 tested, 1.1% active;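 active means mean replicate inhibition score of at least 50 and every replicate individually at or above 50; inconclusive means only one of the two criteria met; inactive means mean below 50 and not all replicates reaching 50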;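 further: 0% = plate neutral controls and 100% = maraviroc near 300 nM; one replicate is shown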
# PABP FP inh: PABP poly(A) RNA binding inhibitors, primary screen, biochemical, fluorescence polarization, uHTS. Polyadenylate-binding protein 1 (Homo sapiens), P11940. AID 2014, 2009. 290,000 tested, 1% active. inhibition, % at 35 µM;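 active means 50% or more with normal probe brightness, or confirmed in later tests; inconclusive means above 50% with abnormal brightness, or retests that disagree; inactive means below 50% or failed in later tests; about a fifth of its hits are not listed in these tables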;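 further: calls also rest on retests at 20 µM and on dose response follow-up; controls were probe without protein and protein plus probe with vehicle; some compounds called inactive have numbers as strong as hits; many hits fall short of the cut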
# Target sequence (P11940 whole entry, looked up): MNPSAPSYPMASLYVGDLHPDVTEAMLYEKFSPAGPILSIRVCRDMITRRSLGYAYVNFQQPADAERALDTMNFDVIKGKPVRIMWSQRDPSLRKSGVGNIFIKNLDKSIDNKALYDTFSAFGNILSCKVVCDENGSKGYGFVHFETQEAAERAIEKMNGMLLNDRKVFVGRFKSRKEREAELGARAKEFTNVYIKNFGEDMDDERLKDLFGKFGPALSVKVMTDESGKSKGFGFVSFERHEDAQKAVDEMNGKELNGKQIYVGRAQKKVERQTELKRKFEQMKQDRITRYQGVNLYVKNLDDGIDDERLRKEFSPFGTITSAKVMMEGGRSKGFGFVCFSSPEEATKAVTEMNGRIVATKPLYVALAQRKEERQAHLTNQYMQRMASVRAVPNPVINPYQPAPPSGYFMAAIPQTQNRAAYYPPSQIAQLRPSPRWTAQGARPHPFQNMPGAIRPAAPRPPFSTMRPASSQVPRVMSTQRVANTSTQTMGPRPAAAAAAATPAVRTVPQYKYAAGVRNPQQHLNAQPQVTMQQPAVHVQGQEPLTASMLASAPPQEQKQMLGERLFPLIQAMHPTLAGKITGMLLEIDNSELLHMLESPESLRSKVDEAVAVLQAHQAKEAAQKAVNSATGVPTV
# eIF4H inh: human eIF4H binding inhibitors, primary screen, translation initiation inhibitor project, biochemical, uHTS, fluorescence polarization | Eukaryotic translation initiation factor 4H (Homo sapiens), Q15056 | eIF4H fluorescence polarization binding assay | inhibition, % at 35 µM | 290,000 tested, 0.94% active | AID 2012, 2009;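 active means 50% or more with normal probe brightness, or confirmed in later tests; inconclusive means above 50% with abnormal brightness, or retests that disagree; inactive means below 50% or failed in later tests; about a fifth of its hits are not listed in these tables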;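 further: calls also rest on retests at 20 µM and on dose response follow-up; 0% = protein and probe with vehicle and 100% = probe without protein; strong numbers were not always called active; many hits fall short of the cut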
# CSC inhib: cancer stem cell viability inhibitors, primary screen, luminescence; cancer stem cell-like cells viability; inhibition, % at 7.5 µM; 300,000 tested, 1.1% active; AID 2717, 2010;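 active means mean at 75% or more and at least half the replicates too; inconclusive means mean and replicates disagree; tested in HMLE shEcad cells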;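 further: 0% = median of negative and 100% = median of positive control wells; the first replicate is given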
# MT1-MMP act inh: blockers of MT1-MMP proenzyme processing, primary screen, HT1080 RFP-PRO-GFP cells, GFP/RFP fluorescence; Matrix metalloproteinase-14 (Homo sapiens), P50281; GFP/RFP ratio change, % at 20 µM; 360,000 tested, 0.061% active; GFP/RFP ratio fluorescence, overnight; percent of plate control window, DMSO zero;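 active means GFP/RFP ratio change of at least 30% with cell ATP level not reduced by more than half and red fluorescence within 50% of control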; further: strong numbers were not always called active
#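 Compound: 20 µM single dose, 1% DMSO / System: HT1080 RFP-PRO-GFP cells / Controls: DMSO and RFP-L50D-GFP cell wells / Read-out basis: GFP/RFP fluorescence ratio / Schedule: overnight compound exposure at 37 °C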
# UUG fidelity: modulators of yeast start codon fidelity, primary screen, whole organism, S. cerevisiae, single point, plate reader. S. cerevisiae UUG-firefly luciferase reporter, luminescence/redox ratio. activity score, % at 18.7 µM. 350,000 tested, 0.13% active;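 active means replicate mean at a twofold rise or more, about +100% in these data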;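 further: firefly luciferase made from a UUG start codon reports start codon fidelity; reporter light over untreated wells divided by growth signal over untreated wells; some hits fall short of that in this replicate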
# Rce1 inh: yeast Rce1p protease inhibitors, primary screen, biochemical, fluorescence, cell-free homogeneous; CAAX prenyl protease 2 (Saccharomyces cerevisiae (strain ATCC 204508 / S288c)), Q03530; yeast membranes, quenched prenylated peptide cleavage fluorescence; calls only; 290,000 tested, 0.27% active; AID 2563, 2010;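 active means fall in fluorescence gain of 50% or more versus controls, with final raw signal at or below 3038400; inconclusive means same 50% fall but final raw signal above 3038400; inactive means fall in fluorescence gain under 50%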;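 further: plate controls were neutral control wells for no effect and wells lacking membranes for full effect; tested at 10 µM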
# eIF4H inh retest: recorded beside eIF4H inh, whose call it bears; inhibition, %; compound at 20 µM; confirmation average;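 mean of two retest wells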
# PABP FP inh retest: further read-out of PABP FP inh, marked with its call; inhibition, %; compound at 20 µM; confirmation repeats;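 mean of two retest wells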
# MT1-MMP act inh RFP: further read-out of MT1-MMP act inh, marked with its call; RFP signal change, %; measured here: RFP expression control read;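 0 = vehicle wells; hits needed this value within 50% of zero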
# Numbers without * were called inactive; i = inactive; ? = inconclusive; / = no result given; & = joins results of further samples; [ ] = another dose, or the depositor's remark.
SMILES,Env fusion inh,PABP FP inh,eIF4H inh,CSC inhib,MT1-MMP act inh,MT1-MMP act inh RFP,UUG fidelity,Rce1 inh,others
CN(C)C(CNC(=O)c1ccc(NS(=O)(=O)c2ccc3[nH]c(=O)[nH]c3c2)cc1)c1ccccc1 (stereo not drawn),-20,/,/,/,-7,-2,1,i,
CN(C(=O)c1ccco1)c1nc(-c2ccccc2)cs1,-170,8,-17,9,1,-1,-27,/,
O=C(/C=C/c1ccc(Cl)cc1)Nc1ccc(CN2CCOCC2)cc1,-69,1,-7,23,-3,-22,/,/,
COc1ccc(S(=O)(=O)Nc2ccc(N3CCOCC3)cc2)cc1[N+](=O)[O-],-14,0,-1,-19,0,0,-2,i,
Cc1cccn2c1nc(=S)n2C(=O)c1ccco1,-29,-4,10,-1,1,5,/,i,
COc1cc(C=O)ccc1OC(=O)c1ccc(C(C)C)cc1,2,13,1,-14,0,4,-1,i,
CC(C)(C)c1ccc(S(=O)(=O)N2C=CC(C(F)(F)F)=NCC2)cc1,2,10,11,1,-1,3,-17,i,
CN(CC(=O)Nc1ccccc1Br)C(=O)CN1CCN(Cc2ccc(Cl)cc2)CC1,-2,/,/,/,2,4,1,/,
S=c1[nH]nc(C2CCCCC2)o1,12,-3,12,-2,-4,-6,-15,i,
Cc1cc(C)cc(OCC(=O)Nc2cc(NC(=O)COc3cc(C)cc(C)c3)cc(C(=O)O)c2)c1,-31,30,24,-14,6,-1,-14,i,
COc1ccccc1NC(=O)N(C)C[C@H]1OCc2cn(nn2)CCCC(=O)N([C@@H](C)CO)C[C@@H]1C,0[16.7 µM],/,/,/,9,13,-8&6&-8,/,
Nc1cccc2cc(-c3ccccc3)oc12,-126,/,/,7,3,2,-30,/,
CCN1CCN(C(CNS(=O)(=O)c2ccc(OC)c(C)c2)c2cccnc2)CC1 (stereo not drawn),-27,-5,-5,11,2,5,-10,i,
Cc1ccc(S(=O)(=O)NN2Cc3ccccc3C2=N)cc1,11,2,3,-9,0,2,-2,i,
CCS(=O)(=O)c1nc(S(=O)(=O)c2ccc(C)cc2)c(N2CC(C)CC(C)C2)s1 (stereo not drawn),11,10,-7,-8,-6,-8,-13,i,
O=C(Cn1c(=O)sc2ccccc21)Nc1ccccc1C(=O)O,/,11,-14,-2,-9,2,-1,i,
CN(C)S(=O)(=O)c1ccc(N2CCCC2)c(C(=O)NCC(=O)Nc2ccc(F)c(F)c2)c1,-17,/,/,/,-2,-3,-16,/,
O=C(Nc1ccc(S(=O)(=O)Nc2ccccc2F)cc1)N1CCCCC1,19,-6,3,3,2,-5,-8,i,
O=C(CN1CCCC1c1cccs1)Nc1cc(S(=O)(=O)N2CCCCC2)ccc1Cl (stereo not drawn),8,/,/,/,-22,-21,4,/,
Cc1sc(NC(=O)CN(Cc2ccc(F)cc2)C(=O)C(C)(C)C)c(C(N)=O)c1C,17,-15,1,1,-3,-4,/,i,
CC(=O)NC(c1ccc(C)cc1)c1cc([N+](=O)[O-])c2cccnc2c1O (stereo not drawn),48*,5,-1,104*,2,-4,/,i,
CN(C)S(=O)(=O)Oc1cccc(C(=O)Nc2cccc(Cl)c2)c1,7,-11,-3,22,-4,-17,-22,/,
COC(=O)c1ccc(N=NN2CCCCCC2)cc1,/,2,10,11,3,-1,-19,i,
CN(C)c1ccc(C(=O)OCC(=O)NCCC2=CCCCC2)cc1,2,1,-7,-10,2,1,/,i,
COc1ccccc1C(=O)Nc1ccc(Br)cc1C,-6,-11,16,0,-8,-5,-7,i,
# Carrying on.
SMILES,Env fusion inh,PABP FP inh,eIF4H inh,CSC inhib,MT1-MMP act inh,MT1-MMP act inh RFP,UUG fidelity,Rce1 inh,others
CC(=O)NC(c1ccc(C(C)C)cc1)c1c(O)ccc2ccccc12 (stereo not drawn),12,/,/,2,-19,-19,-14,i,
CCCCc1cc(-c2n[nH]c(=S)o2)c2ccccc2n1,18,-3,-9,41,-2,0,-20,i,
CC(=O)Nc1ccc(NC(=O)C(C)Sc2n[nH]c(-c3cccs3)n2)cc1 (stereo not drawn),-8,/,/,-7,6,-2,-21,/,
CN(C)C(CNC(=O)CCC(=O)c1ccc(Br)cc1)c1ccccc1 (stereo not drawn),3,2,-5,2,3,1,-3,i,
Cc1ccnc(Sc2nc3c(c(=O)[nH]c(=O)n3C)n2CCCc2ccccc2)n1,i,2,-10,-6,-6,1,/,i,
CCOC(=O)C1=C(C)N(C[C@@H]2CC[C@@H](Cc3ccc(-c4ccccc4)cc3)O2)C(=O)NC1c1ccc([N+](=O)[O-])cc1 (stereo partly drawn),40,/,/,/,-10,-16,-19,/,
Cc1cc(CNC(=O)COc2ccc([N+](=O)[O-])cc2)c2ccccc2n1,-7,-7,0,4,1,-3,/,i,
CCCC1(CCC)NC(=O)N(CC(=O)c2cc(C)n(-c3ccc4c(c3)OCO4)c2C)C1=O,-36,2,6,28,-8,-7,-10,i,
CCN1CCN(C(=O)c2ccccc2Nc2ccc(SC(F)F)cc2)CC1,23,10,-11,5,0,7,-4,i,
Cc1ccc(OC(=O)COc2ccccc2C)c(-n2nc3ccccc3n2)c1,-120,-4,7,-1,8,4,-13,i,
CSc1ccc(CN(C)C(=O)C23CC4CC(CC(Cl)(C4)C2)C3)cc1,33,11,-13,-13,1,-2,-3,i,
Cc1ccc(C(=O)NCC(=O)OCCCn2c(=O)[nH]c3ccccc32)cc1,-22,/,/,-14,-2,2,-4,i,
C=CC(C)(C)O[C@@H]1O[C@H](CO)[C@@H](O)[C@H](O)[C@H]1O,11,/,/,-3,1,4,-20,/,
COc1cc(CNCCN2CCOCC2)ccc1OCC(=O)NC(C)(C)C,-4,12,-10,4,2,3,-13,i,
Cc1ccccc1-c1nc(CN2CCC(C(=O)NC3CCN(Cc4ccccc4)CC3)CC2)c(C)o1,17,/,/,19,3,4,-12,i,
CN1CCc2c(sc3nc(SCC(=O)NCc4ccco4)n(-c4ccccc4)c(=O)c23)C1,-7,47,91,-8,-15,10,-4,i,eIF4H inh retest=22;PABP FP inh retest=25
CSCCC(=O)NC1CCCN(CCc2ccccc2)C1 (stereo not drawn),7,-1,5,-7,2,4,1,i,
CCCOc1ccc(OC(=O)c2ccc(Br)o2)cc1,-40,0,-3,12,4,2,-7,i,
O=C(CSc1nnc(COc2ccc(Cl)cc2)o1)N(c1ccccc1)C1CCS(=O)(=O)C1 (stereo not drawn),65*,/,/,/,-6,-29,8,/,
CN(CC(=O)Nc1ccccc1Cl)C(=O)COC(=O)c1cnccn1,0,11,-9,6,0,9,-12,i,
CCOC(=O)N1CCN(S(=O)(=O)N2CCCC(C(=O)NCc3ccccc3Cl)C2)CC1 (stereo not drawn),-1,-1,4,-4,7,2,-10,i,
CC(C)Oc1ccccc1OCCCCn1cnc2ccccc2c1=O,2,9,-9,4,1,1,/,i,
COC(=O)c1[nH]c2ccccc2c1NC(=O)CCN1CCN(C2CCCCC2)CC1,/,-8,-1,/,/,/,/,i,
Cc1ccc(N2C(=O)C3CCCN3C2=S)cc1C (stereo not drawn),-29,16,-2,0,-1,1,-8,i,
CCCCn1nnnc1C(c1ccnc2ccccc12)N1CCN(C/C=C/c2ccccc2)CC1 (stereo not drawn),-6,/,/,/,-1,-6,14,/,

# The closing 4 entries of the section above open the next one:
SMILES,Env fusion inh,PABP FP inh,eIF4H inh,CSC inhib,MT1-MMP act inh,MT1-MMP act inh RFP,UUG fidelity,Rce1 inh,others
CC(C)Oc1ccccc1OCCCCn1cnc2ccccc2c1=O,2,9,-9,4,1,1,/,i,
COC(=O)c1[nH]c2ccccc2c1NC(=O)CCN1CCN(C2CCCCC2)CC1,/,-8,-1,/,/,/,/,i,
Cc1ccc(N2C(=O)C3CCCN3C2=S)cc1C (stereo not drawn),-29,16,-2,0,-1,1,-8,i,
CCCCn1nnnc1C(c1ccnc2ccccc12)N1CCN(C/C=C/c2ccccc2)CC1 (stereo not drawn),-6,/,/,/,-1,-6,14,/,
O=C(O)C1CC(=O)N(Cc2cccnc2)C1 (stereo not drawn),/,3,-4,-3,-2,2,-6,i,
CCOC(=O)C1=NNC2(c3ccc(Cl)cc3)C(=O)N(c3ccc(C)cc3)C(=O)C12 (stereo not drawn),8,-8,-7,6,1,1,-5,i,
CC(=O)c1cccc(NC(=S)NCCC2=CCCCC2)c1,/,-7,-6,9,-10,-22,/,i,
Cc1ccc(S(=O)(=O)c2c(C)cc(C)[nH]c2=O)c(C)c1,5,-7,-2,-7,3,-2,-3,i,
COCCn1c(=NC(=O)c2ccc3c(c2)OCCO3)sc2cc(S(N)(=O)=O)ccc21,33,-1,-10,-12,-1,-5,/,i,
Cc1cccc(S(=O)(=O)C(C#N)c2nc3ccccc3nc2N2CCCC2)c1 (stereo not drawn),/,122*,122*,10,-22,13,-8,i,eIF4H inh retest=84*;PABP FP inh retest=68*
COc1ccccc1N1CCN(C2CCCN(S(=O)(=O)c3ccccc3)C2)CC1 (stereo not drawn),-2,0,-1,14,5,3,1,i,
Cc1ccc(C2SCCN2C(=O)c2ccc([N+](=O)[O-])cc2)cc1 (stereo not drawn),-15,21,5,-8,-3,0,/,i,
COc1ccc(C(=O)Nc2ccccc2C(=O)NC(C(=O)NCc2ccco2)C(C)C)cc1 (stereo not drawn),/,5,4,7,-3,-5,-15,i,
CCOc1ccc(-n2cnc3c(=O)[nH]c(N)nc32)cc1,-2,10,-15,-4,2,4,-12,i,
COc1ccc(CNC(=O)c2cccnc2Sc2ccc(C)c(C)c2)cc1,21,-13,-7,-5,0,-7,2,i,
O=C(NC1CCCCCC1)C1c2ccccc2C(=O)N1Cc1cccnc1 (stereo not drawn),-30,1,-1,-16,6,0,-11,i,
C=CC[C@@H](CC(=O)N[C@H](CO)Cc1ccccc1)C(=O)N[C@@H](C)COC(=O)[C@@H](CC=C)Cc1ccc(F)cc1,-4,/,/,1,9,-22,-13,/,
C=C(C)C(=O)Nc1cccc(C2=NOC3(C2)C[C@H](C(N)=O)N(C(=O)c2ccccc2)C3)c1 (stereo partly drawn),/,62*,91*,6,1,4,-13,i,
C/C(=N\NC(=O)c1cc2ccccc2cc1O)c1cc2ccccc2o1,12,18,47,93*,3,-9,-14,i,
C=CCNc1nc2c3ccccc3n(C(C)=O)c2s1,/,28,0,0,-8,4,-16,i,
Cc1ccc(S(=O)(=O)Nc2ccccc2)cc1[N+](=O)[O-],-1,/,/,/,2,0,-32,/,
Cc1ccccc1NC(=O)c1sc(Cl)nc1-c1ccccc1,/,-4,-3,4,7,2,7,i,
CN(CC(=O)NCCCc1ccccc1)S(=O)(=O)c1ccc(Br)cc1,?,7,5,-6,1,-7,-16,i,
Cc1nn(CC(=O)NC(=O)c2ccccc2)c(C)c1[N+](=O)[O-],/,/,/,14,9,-1,-2,/,

# This is a subset. The share of hits here may be higher or lower than overall.
